# Screens (PubChem)
# Yeast UUG start = modulators of yeast start codon fidelity, primary screen, whole organism, S. cerevisiae, single point, plate reader; S. cerevisiae UUG-firefly luciferase reporter, luminescence/redox ratio; activity score, % at 18.7 µM; actives 0.13% (n = 350,000); AID 602363, 2012;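 active = replicate mean at a twofold rise or more, about +100% in these data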;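 also: firefly luciferase made from a UUG start codon reports start codon fidelity; reporter light over untreated wells divided by growth signal over untreated wells; some hits fall short of that in this replicate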
# HIV Env fusion = inhibitors of HIV-1 Env-driven cell-cell fusion, primary screen, HeLa-JRFL effector, CEM21 target cells, luciferase; inhibition, % at 12.3 µM; AID 651610, 2012; actives 1.1% (n = 360,000);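 active = mean replicate inhibition score of at least 50 and every replicate individually at or above 50; inconclusive = only one of the two criteria met; inactive = mean below 50 and not all replicates reaching 50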;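 also: 0% = plate neutral controls and 100% = maraviroc near 300 nM; one replicate is shown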
# Numbers without * were called inactive; ? = inconclusive; [ ] = remark or other dose. An excerpt. The share of hits here may be higher or lower than overall.
SMILES,Yeast UUG start,HIV Env fusion
COc1ccc(CN(C)C[C@@H]2OCCCC[C@@H](C)Oc3ccc(NC(=O)Cc4ccccc4)cc3C(=O)N([C@@H](C)CO)C[C@@H]2C)cc1,24,-13[16.7 µM]
C[C@@H]1CN([C@H](C)CO)C(=O)Cc2cc(NC(=O)CCN3CCOCC3)ccc2O[C@H]1CN(C)Cc1ccc2c(c1)OCO2,28,2[16.7 µM]
C[C@@H]1CN([C@@H](C)CO)C(=O)Cc2cc(NC(=O)Nc3ccc(F)cc3)ccc2O[C@H]1CN(C)S(=O)(=O)c1ccc(Cl)cc1,-7,10[16.7 µM]
COC(=O)C[C@@H]1CC[C@@H]2[C@@H](COc3ccc(NC(=O)C4CC4)cc3C(=O)N2C)O1,-6,5[16.7 µM]
C[C@H](CO)N1C[C@H](C)[C@@H](CN(C)C(=O)Nc2ccc(F)cc2)Oc2ncc(C#Cc3ccc(F)cc3)cc2C1=O,-2,-5[16.7 µM]
C[C@@H]1CN([C@@H](C)CO)C(=O)c2cc(-c3cccc(F)c3)cnc2O[C@@H]1CN(C)C(=O)Nc1ccccc1F,4,15[16.7 µM]
C[C@H](CO)N1C[C@H](C)[C@H](CN(C)C(=O)C2CC2)Oc2cc(-c3cccc(C#N)c3)ccc2S1(=O)=O,-3,1[16.7 µM]
O=C(Cc1ccccn1)N[C@H]1CC[C@@H](CCNC(=O)c2cc(Cl)cc(Cl)c2)O[C@H]1CO,12,8[16.7 µM]
CC12CCCC(CC(=O)O)(C1)NC(=O)C2 (stereo not drawn),-8,7
O=C(C[C@H]1CC[C@H]2[C@@H](COC[C@H](O)CN2C(=O)Nc2ccccc2)O1)NCc1ccncn1,23,-3[16.7 µM]
C[C@H]1CN([C@@H](C)CO)C(=O)c2cccc(NC(=O)Nc3ccc(F)cc3)c2O[C@@H]1CN(C)Cc1ccccc1,11,-3[16.7 µM]
C[C@@H]1CN([C@H](C)CO)C(=O)c2cc(NS(C)(=O)=O)ccc2O[C@H]1CN(C)Cc1ccc(Oc2ccccc2)cc1,-22,8[16.7 µM]
CC(C)C#Cc1cnc2c(c1)C(=O)N([C@H](C)CO)C[C@@H](C)[C@H](CN(C)C(=O)C1CCC1)O2,7,-2[16.7 µM]
COc1ccc(NC(=O)Nc2cccc3c2O[C@H](CN(C)CC2CC2)[C@@H](C)CN([C@H](C)CO)C3=O)cc1,-5,-3[16.7 µM]
C[C@H]1CN([C@@H](C)CO)S(=O)(=O)c2ccc(C#CCN(C)C)cc2O[C@@H]1CN(C)C(=O)c1ccccc1F,1,-1[16.7 µM]
Cc1ccc(S(=O)(=O)Nc2ccc3c(c2)CC(=O)N([C@H](C)CO)C[C@H](C)[C@H](CN(C)S(=O)(=O)c2cccs2)O3)cc1,13,?
Cc1noc(C)c1NC(=O)N(C)C[C@H]1OCCCC[C@@H](C)Oc2ccc(NC(=O)Cc3ccccc3)cc2C(=O)N([C@H](C)CO)C[C@H]1C,12,3[16.7 µM]
COCc1cn(CC[C@H]2CC[C@H](NC(=O)CCN3CCCCC3)[C@H](CO)O2)nn1,-9,-46[16.7 µM]
C[C@@H]1CN([C@@H](C)CO)C(=O)c2cccc(N(C)C)c2O[C@@H]1CN(C)Cc1ccc(C(F)(F)F)cc1,4,7[16.7 µM]
C[C@H](O)C#Cc1ccc2c(c1)O[C@@H](CN(C)C(=O)Cc1ccccn1)[C@@H](C)CN([C@@H](C)CO)S2(=O)=O,-4,5[16.7 µM]
C[C@@H]1CCCCO[C@H](CN(C)Cc2ccc(C(F)(F)F)cc2)[C@@H](C)CN([C@@H](C)CO)C(=O)c2cc(NC(=O)Nc3cccc4ccccc34)ccc2O1,32,11[16.7 µM]
C[C@H]1CN([C@@H](C)CO)C(=O)Cc2cc(NC(=O)Nc3cccc4ccccc34)ccc2O[C@H]1CN(C)Cc1ccccc1,12,24[16.7 µM]
C[C@@H]1CCCCO[C@H](CN(C)C(=O)Nc2cccc3ccccc23)[C@@H](C)CN([C@@H](C)CO)C(=O)c2cc(NC(=O)Cc3ccccc3)ccc2O1,9,-132[16.7 µM]
C[C@H]1CCCCO[C@H](CN(C)Cc2ccncc2)[C@@H](C)CN([C@@H](C)CO)C(=O)c2cc(NS(=O)(=O)c3cccs3)ccc2O1,-8,4[16.7 µM]
CC(C)CC#Cc1cnc2c(c1)C(=O)N([C@@H](C)CO)C[C@H](C)[C@@H](CN(C)Cc1cncnc1)O2,-2,17[16.7 µM]
C[C@H](CO)N1C[C@H](C)[C@@H](CN(C)C(=O)C2CCC2)Oc2ncc(-c3ccccc3F)cc2C1=O,0,19[16.7 µM]
C[C@H](CO)N1C[C@H](C)[C@H](CN(C)Cc2ccc(-c3ccccc3)cc2)Oc2c(NS(C)(=O)=O)cccc2C1=O,2,-14[16.7 µM]
C[C@H](O)C#Cc1ccc2c(c1)O[C@H](CN(C)Cc1ccncc1)[C@H](C)CN([C@@H](C)CO)S2(=O)=O,0,-15[16.7 µM]
C[C@@H]1CN([C@H](C)CO)S(=O)(=O)c2ccc(C#Cc3ccc(F)cc3)cc2O[C@@H]1CN(C)C(=O)c1ccccn1,29,-1[16.7 µM]
C[C@@H]1CN([C@H](C)CO)C(=O)c2cccc(NC(=O)c3nc4ccccc4s3)c2O[C@H]1CN(C)C(=O)Nc1ccc(F)cc1,13,-4[16.7 µM]
CCCNC(=O)C[C@@H]1CC[C@H]2[C@@H](COc3ccc(NC(=O)CCC)cc3C(=O)N2C)O1,-2,-6[16.7 µM]
C[C@H]1CN([C@@H](C)CO)C(=O)c2cc(-c3ccccc3)cnc2O[C@H]1CN(C)C(=O)C1CCCCC1,-6,16[16.7 µM]
C[C@@H]1CN([C@@H](C)CO)C(=O)Cc2cc(NC(=O)Cc3ccccc3)ccc2O[C@@H]1CN(C)Cc1ccc(Oc2ccccc2)cc1,22,-42[16.7 µM]
C[C@H](CO)N1C[C@H](C)[C@H](CN(C)C(=O)CN(C)C)Oc2cc(C#Cc3ccc(F)cc3)ccc2S1(=O)=O,14,-7[16.7 µM]
C[C@@H]1CCCCO[C@@H](CN(C)S(=O)(=O)c2cccs2)[C@@H](C)CN([C@H](C)CO)C(=O)c2cc(NS(C)(=O)=O)ccc2O1,0,30[16.7 µM]
CC(C)NC(=O)N(C)C[C@@H]1Oc2ccc(NS(C)(=O)=O)cc2C(=O)N([C@H](C)CO)C[C@@H]1C,-16,-10[16.7 µM]
Cc1noc(C)c1NC(=O)N(C)C[C@@H]1Oc2ccc(NC(=O)CCN3CCOCC3)cc2CC(=O)N([C@@H](C)CO)C[C@H]1C,12,-25[16.7 µM]
O=C(N[C@H]1CC[C@H](CCNS(=O)(=O)c2ccc(F)cc2)O[C@@H]1CO)C1CCC1,0,-6[16.7 µM]
CC(=O)Nc1ccc2c(c1)C(=O)N(C)[C@H]1CC[C@H](CC(=O)NCc3ccccc3Cl)O[C@H]1CO2,-7,9[16.7 µM]
Cc1ccc(-c2cnc3c(c2)C(=O)N([C@@H](C)CO)C[C@@H](C)[C@@H](CN(C)Cc2ccccc2F)O3)cc1,-3,15[16.7 µM]
Cc1noc(C)c1S(=O)(=O)Nc1ccc2c(c1)CC(=O)N([C@@H](C)CO)C[C@@H](C)[C@@H](CN(C)Cc1ccc3c(c1)OCO3)O2,-19,8[16.7 µM]
C[C@H](CO)N1C[C@H](C)[C@@H](CN(C)Cc2ccncc2)Oc2ccc(NS(C)(=O)=O)cc2C1=O,5,0[16.7 µM]
CCNC(=O)C[C@@H]1CC[C@H]2[C@@H](COc3ccc(NS(C)(=O)=O)cc3C(=O)N2C)O1,1,6[16.7 µM]
C[C@H](CO)N1C[C@H](C)[C@H](CN(C)CC2CCCCC2)Oc2c(NC(=O)C3CCCCC3)cccc2C1=O,-11,-27[16.7 µM]
C/C=C/c1cnc2c(c1)C(=O)N([C@@H](C)CO)C[C@@H](C)[C@H](CN(C)C(=O)Nc1cccc(OC)c1)O2,18,-59[16.7 µM]

# Copied from the list:
# In HIV Env fusion, C[C@H]1CN([C@@H](C)CO)C(=O)c2cccc(NC(=O)Nc3ccc(F)cc3)c2O[C@@H]1CN(C)Cc1ccccc1 is entered as -3[16.7 µM]
# In Yeast UUG start, CC12CCCC(CC(=O)O)(C1)NC(=O)C2 (stereo not drawn) is entered as -8

# Continuation:
SMILES,Yeast UUG start,HIV Env fusion
C[C@@H]1CN([C@@H](C)CO)C(=O)c2cc(NC(=O)CCC(F)(F)F)ccc2O[C@@H](C)CCCCO[C@@H]1CN(C)Cc1ccc(C(F)(F)F)cc1,6,40[16.7 µM]
CNC[C@H]1OCCCC[C@H](C)Oc2ccc(NS(=O)(=O)c3ccc(C)cc3)cc2C(=O)N([C@@H](C)CO)C[C@H]1C,1,-18[16.7 µM]
C[C@H](CO)N1C[C@H](C)[C@H](CN(C)S(=O)(=O)c2cccs2)Oc2ccc(NS(=O)(=O)c3ccccc3)cc2CC1=O,18,25[16.7 µM]
C[C@@H]1CN([C@@H](C)CO)C(=O)Cc2cc(NS(=O)(=O)c3cccs3)ccc2O[C@H]1CN(C)CC1CCCCC1,-3,-10[16.7 µM]
CCC(=O)N[C@@H]1C=C[C@@H](CC(=O)NCC2CCCCC2)O[C@@H]1CO,-7,-26[16.7 µM]
CCS(=O)(=O)NCC[C@@H]1CC[C@H](NS(=O)(=O)c2ccccc2C)[C@H](CO)O1,-3,12[16.7 µM]
CCNC(=O)C[C@H]1C=C[C@@H](NC(=O)NC2CCCCC2)[C@H](CO)O1,-6,-9[16.7 µM]
CN(C)CC(=O)N[C@@H]1CC[C@H](CCNC(=O)C2CCC2)O[C@@H]1CO,5,-6[16.7 µM]
C[C@H]1CN([C@@H](C)CO)C(=O)c2cccc(NC(=O)Nc3ccc(C(F)(F)F)cc3)c2O[C@H]1CN(C)CC1CC1,11,3[16.7 µM]
COc1ccccc1-c1ccc([C@H]2[C@@H](CO)N(C(=O)NC3CCCCC3)[C@H]2C#N)cc1,4,6[16.7 µM]
CC(C)NC(=O)Nc1ccc2c(c1)C(=O)N([C@@H](C)CO)C[C@H](C)[C@H](CN(C)S(=O)(=O)c1ccc(F)cc1)OCCCC[C@H](C)O2,11,-3[16.7 µM]
C[C@@H](NC(=O)C[C@@H]1CC[C@H](NC(=O)C2CC2)[C@H](CO)O1)c1ccccc1,-14,2[16.7 µM]
C[C@@H]1CN([C@@H](C)CO)S(=O)(=O)c2ccc(-c3ccc(C#N)cc3)cc2O[C@H]1CN(C)Cc1cccc(F)c1,-4,17[16.7 µM]
COc1ccc(S(=O)(=O)N[C@H]2C=C[C@@H](CC(=O)N3CCN(c4ccccc4)CC3)O[C@@H]2CO)cc1,0,21[16.7 µM]
C[C@@H]1CCCCO[C@H](CN(C)Cc2ccc(Cl)c(Cl)c2)[C@H](C)CN([C@@H](C)CO)C(=O)c2cc(NC(=O)CCC(F)(F)F)ccc2O1,16,-45[16.7 µM]

# Fetched by compound from above:
SMILES,Yeast UUG start,HIV Env fusion
CNC[C@H]1OCCCC[C@H](C)Oc2ccc(NS(=O)(=O)c3ccc(C)cc3)cc2C(=O)N([C@@H](C)CO)C[C@H]1C,1,-18[16.7 µM]
C[C@@H]1CN([C@@H](C)CO)C(=O)Cc2cc(NS(=O)(=O)c3cccs3)ccc2O[C@H]1CN(C)CC1CCCCC1,-3,-10[16.7 µM]
COc1ccc(S(=O)(=O)N[C@H]2C=C[C@@H](CC(=O)N3CCN(c4ccccc4)CC3)O[C@@H]2CO)cc1,0,21[16.7 µM]
CC(C)NC(=O)Nc1ccc2c(c1)C(=O)N([C@@H](C)CO)C[C@H](C)[C@H](CN(C)S(=O)(=O)c1ccc(F)cc1)OCCCC[C@H](C)O2,11,-3[16.7 µM]
CCC(=O)N[C@@H]1C=C[C@@H](CC(=O)NCC2CCCCC2)O[C@@H]1CO,-7,-26[16.7 µM]
C[C@H]1CN([C@@H](C)CO)C(=O)c2cccc(NC(=O)Nc3ccc(C(F)(F)F)cc3)c2O[C@H]1CN(C)CC1CC1,11,3[16.7 µM]
C[C@@H]1CCCCO[C@H](CN(C)Cc2ccc(Cl)c(Cl)c2)[C@H](C)CN([C@@H](C)CO)C(=O)c2cc(NC(=O)CCC(F)(F)F)ccc2O1,16,-45[16.7 µM]

# (cont.)
SMILES,Yeast UUG start,HIV Env fusion
CCCNC(=O)N(C)C[C@@H]1Oc2cc(C#Cc3ccccn3)ccc2S(=O)(=O)N([C@@H](C)CO)C[C@@H]1C,-7,3[16.7 µM]
COc1cccc(CNC(=O)C[C@@H]2C=C[C@@H](NC(=O)C3CCOCC3)[C@@H](CO)O2)c1,5,3[16.7 µM]
Cc1noc(C)c1NC(=O)N(C)C[C@H]1Oc2c(NC(=O)C3CC3)cccc2C(=O)N([C@@H](C)CO)C[C@H]1C,-2,0[16.7 µM]
Cc1ccccc1S(=O)(=O)NCC[C@H]1CC[C@H](NC(=O)C2CCOCC2)[C@@H](CO)O1,1,-2[16.7 µM]
C[C@@H]1CCCCO[C@@H](CN(C)C(=O)Nc2ccc(C(F)(F)F)cc2)[C@H](C)CN([C@H](C)CO)C(=O)c2cc(NS(=O)(=O)c3cccs3)ccc2O1,3,5[16.7 µM]
C[C@@H]1CN([C@H](C)CO)S(=O)(=O)c2ccc(Br)cc2O[C@@H]1CN(C)Cc1ccncc1,-3,-6[16.7 µM]
CC(C)NC(=O)N(C)C[C@@H]1OCCCC[C@@H](C)Oc2ccc(NC(=O)Nc3ccc(C(F)(F)F)cc3)cc2C(=O)N([C@@H](C)CO)C[C@@H]1C,5,18[16.7 µM]
C[C@H]1CN([C@@H](C)CO)C(=O)c2cc(C3=CCCCC3)cnc2O[C@H]1CN(C)C(=O)C1CCOCC1,-1,-3[16.7 µM]
